Source: PubChem BioAssay (ICCB-Longwood Screening Facility, Harvard Medical School)
Sa helicase inh: S. aureus DNA helicase inhibition. purified S. aureus helicase, fluorescence unwinding assay; about half of the hits fall short of the stated cut. AID 485395. inhibition, %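 (tested at about 80 µM)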. 120,000 tested, 0.05% active;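 active = both duplicates at 50% or more, or one of them with a favoured structure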;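 note: 0% = mean of negative control wells and 100% = mean of positive control wells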
MgrA DNA FP: modulators of Staphylococcus aureus MgrA DNA binding. fluorescence polarization. inhibition, %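 (about 10 µg/mL by stock and volumes)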. 84,000 tested, 0.13% active. AID 602314;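 active = above 50% in either of two replicates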;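 note: 0% = protein plus DNA without compound and 100% = DNA alone without protein; higher means less MgrA bound to DNA so lower polarization; one replicate is shown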
Active calls of the source: *; x = no result given. Only part of the results is shown; the hit share may differ from the screen's.

A first look, two compounds:
CC1(C)Cc2ccccc2-c2nc(-c3ccccc3)n(CCO)c(=O)c21
  Sa helicase inh = 7; MgrA DNA FP = 1.2
C=CCNc1sc(C(=O)C(C)(C)C)c(N)c1C#N
  Sa helicase inh = 10; MgrA DNA FP = 8.6

Main list, from the first entry:
CC1(C)Cc2ccccc2-c2nc(-c3ccccc3)n(CCO)c(=O)c21
  Sa helicase inh = 7; MgrA DNA FP = 1.2
C=CCNc1sc(C(=O)C(C)(C)C)c(N)c1C#N
  Sa helicase inh = 10; MgrA DNA FP = 8.6
N#CCC1(C#N)C2CC3CC(C2)CC1C3 (stereo unspecified)
  Sa helicase inh = x; MgrA DNA FP = 0.4
CSc1ncnc2sc(-c3ccccc3)cc12
  Sa helicase inh = 14; MgrA DNA FP = 0.8
COC(=O)c1ccc(Cl)cc1NS(C)(=O)=O
  Sa helicase inh = x; MgrA DNA FP = 3.3
CCCCc1nc(OCC(=O)c2ccccc2)c(C#N)c2c1COC(C)(C)C2
  Sa helicase inh = 12; MgrA DNA FP = -0.7
O=C1CN(C(=O)c2ccccc2)C(c2ccccc2)c2cc(F)ccc2N1 (stereo unspecified)
  Sa helicase inh = 5; MgrA DNA FP = -0.1
CCN(CC)c1ccc(CNc2ccc3c(c2)ncn3C)cc1
  Sa helicase inh = 5; MgrA DNA FP = 0.9
NC(=O)NO
  Sa helicase inh = x; MgrA DNA FP = 1.6
CCCN1C(=O)c2ccc(C(=O)Nc3cc(OC)c(OC)cc3C(=O)O)cc2C1=O
  Sa helicase inh = -2; MgrA DNA FP = 2.2

CCOC(=O)N1CCN(C(=O)Cn2cnc3c(nnn3-c3cccc(Cl)c3)c2=O)CC1
  Sa helicase inh = -3; MgrA DNA FP = x
CC(C)(CO)NC(=S)NC1CC1
  Sa helicase inh = 3; MgrA DNA FP = x
CC(C)C(NC(=O)c1ccc(F)cc1)C(=O)O (stereo unspecified)
  Sa helicase inh = x; MgrA DNA FP = -3.4
CC(C)(C)C1CCC(C(=O)OCC(=O)N2CCOCC2)CC1 (stereo unspecified)
  Sa helicase inh = -10; MgrA DNA FP = -1.4
CCN(Cc1ccc(Cl)s1)Cn1c(CO)nc2ccccc21
  Sa helicase inh = -6; MgrA DNA FP = x
CCCN(Cc1cc2cccc(C)c2[nH]c1=O)C(=O)c1cc(OC)c(OC)c(OC)c1
  Sa helicase inh = 15; MgrA DNA FP = -2.8
COc1cccc(C(=O)COc2ccc3ccc(=O)oc3c2)c1
  Sa helicase inh = 9; MgrA DNA FP = -0.2
COc1ccc(C(CC(=O)O)N2Cc3ccccc3C2=O)cc1 (stereo unspecified)
  Sa helicase inh = x; MgrA DNA FP = -2.5
NS(=O)(=O)c1ccc(NC(=O)/C=C/c2ccccc2)cc1
  Sa helicase inh = 9; MgrA DNA FP = -5.2
COC(=O)C1=C(N)Oc2c(Br)cc(Br)cc2C1C(C#N)C(=O)OC (stereo unspecified)
  Sa helicase inh = x; MgrA DNA FP = 13

O=C(CC(=O)NCc1ccc(Cl)cc1)NCc1ccc(Cl)cc1
  Sa helicase inh = -16; MgrA DNA FP = 1.6
Cc1ccc2nc(SCC(=O)NC3Cc4ccccc4C3)[nH]c2c1
  Sa helicase inh = x; MgrA DNA FP = -2.3
C=CCNc1nc(Nc2ccc(-c3nc4ccccc4o3)cc2)nc(N2CCOCC2)n1
  Sa helicase inh = 11; MgrA DNA FP = 0.6
CCOc1ccccc1NC(=O)C(C)CC (stereo unspecified)
  Sa helicase inh = 5; MgrA DNA FP = -0.2
COc1ccccc1OCCNC(=O)c1n[nH]c2ccccc12
  Sa helicase inh = -9; MgrA DNA FP = x
CCc1oc2cc(OC(C)=O)ccc2c(=O)c1-c1ccc2c(c1)OCCO2
  Sa helicase inh = 4; MgrA DNA FP = x
CCn1c(SCC(=O)N2c3ccccc3Sc3ccccc32)nnc1-c1ccco1
  Sa helicase inh = 6; MgrA DNA FP = 0.5
Cc1c(C(=O)O)oc2ccc(S(=O)(=O)N3CCCCCC3)cc12
  Sa helicase inh = 6; MgrA DNA FP = x
COc1ccc(NC(=O)c2ccccc2OCc2ccccc2)cn1
  Sa helicase inh = -16; MgrA DNA FP = 1.0
O=C(COC(=O)c1ccc(Cl)nc1)c1cc2c3c(c1)CC(=O)N3CCC2
  Sa helicase inh = -17; MgrA DNA FP = x

Reprinted from the entries so far (20 entries):
NC(=O)NO
  Sa helicase inh = x; MgrA DNA FP = 1.6
CCCN1C(=O)c2ccc(C(=O)Nc3cc(OC)c(OC)cc3C(=O)O)cc2C1=O
  Sa helicase inh = -2; MgrA DNA FP = 2.2
CCOC(=O)N1CCN(C(=O)Cn2cnc3c(nnn3-c3cccc(Cl)c3)c2=O)CC1
  Sa helicase inh = -3; MgrA DNA FP = x
CC(C)(CO)NC(=S)NC1CC1
  Sa helicase inh = 3; MgrA DNA FP = x
CC(C)C(NC(=O)c1ccc(F)cc1)C(=O)O (stereo unspecified)
  Sa helicase inh = x; MgrA DNA FP = -3.4
CC(C)(C)C1CCC(C(=O)OCC(=O)N2CCOCC2)CC1 (stereo unspecified)
  Sa helicase inh = -10; MgrA DNA FP = -1.4
CCN(Cc1ccc(Cl)s1)Cn1c(CO)nc2ccccc21
  Sa helicase inh = -6; MgrA DNA FP = x
CCCN(Cc1cc2cccc(C)c2[nH]c1=O)C(=O)c1cc(OC)c(OC)c(OC)c1
  Sa helicase inh = 15; MgrA DNA FP = -2.8
COc1cccc(C(=O)COc2ccc3ccc(=O)oc3c2)c1
  Sa helicase inh = 9; MgrA DNA FP = -0.2
COc1ccc(C(CC(=O)O)N2Cc3ccccc3C2=O)cc1 (stereo unspecified)
  Sa helicase inh = x; MgrA DNA FP = -2.5
NS(=O)(=O)c1ccc(NC(=O)/C=C/c2ccccc2)cc1
  Sa helicase inh = 9; MgrA DNA FP = -5.2
COC(=O)C1=C(N)Oc2c(Br)cc(Br)cc2C1C(C#N)C(=O)OC (stereo unspecified)
  Sa helicase inh = x; MgrA DNA FP = 13

O=C(CC(=O)NCc1ccc(Cl)cc1)NCc1ccc(Cl)cc1
  Sa helicase inh = -16; MgrA DNA FP = 1.6
Cc1ccc2nc(SCC(=O)NC3Cc4ccccc4C3)[nH]c2c1
  Sa helicase inh = x; MgrA DNA FP = -2.3
C=CCNc1nc(Nc2ccc(-c3nc4ccccc4o3)cc2)nc(N2CCOCC2)n1
  Sa helicase inh = 11; MgrA DNA FP = 0.6
CCOc1ccccc1NC(=O)C(C)CC (stereo unspecified)
  Sa helicase inh = 5; MgrA DNA FP = -0.2
COc1ccccc1OCCNC(=O)c1n[nH]c2ccccc12
  Sa helicase inh = -9; MgrA DNA FP = x
CCc1oc2cc(OC(C)=O)ccc2c(=O)c1-c1ccc2c(c1)OCCO2
  Sa helicase inh = 4; MgrA DNA FP = x
CCn1c(SCC(=O)N2c3ccccc3Sc3ccccc32)nnc1-c1ccco1
  Sa helicase inh = 6; MgrA DNA FP = 0.5
Cc1c(C(=O)O)oc2ccc(S(=O)(=O)N3CCCCCC3)cc12
  Sa helicase inh = 6; MgrA DNA FP = x

Next structures follow:
COc1ccc(C2=NN(C(=O)CCC(=O)O)C(c3ccccc3F)C2)cc1 (stereo unspecified)
  Sa helicase inh = x; MgrA DNA FP = 0.6
CSc1nnc(SC2CC(=O)N(c3cc(Cl)cc(Cl)c3)C2=O)s1 (stereo unspecified)
  Sa helicase inh = -24; MgrA DNA FP = x
O=C(O)c1ccccc1SC1CCS(=O)(=O)C1 (stereo unspecified)
  Sa helicase inh = 2; MgrA DNA FP = x
N=C1SCC(=O)N1c1nccs1
  Sa helicase inh = -1; MgrA DNA FP = -1.5
CN[C@H]1CC[C@@H](c2ccc(Cl)c(Cl)c2)c2ccccc21
  Sa helicase inh = x; MgrA DNA FP = 4.5
C=CCN1C(=O)C(C(=O)Nc2ccc(C)cc2)C2CC1(C)Oc1ccccc12 (stereo unspecified)
  Sa helicase inh = -2; MgrA DNA FP = -1.0
Cc1cc(C)nc(SCC(=O)OCC(=O)c2ccc3[nH]c(=O)[nH]c3c2)n1
  Sa helicase inh = 17; MgrA DNA FP = x
Cc1ccc2nc(-c3ccc(NC(=O)c4cc(C)on4)cc3)sc2c1
  Sa helicase inh = x; MgrA DNA FP = 0.0
COc1ccccc1CNC(=O)c1cc(S(=O)(=O)N2CCCC(C)C2)ccc1F (stereo unspecified)
  Sa helicase inh = -2; MgrA DNA FP = x
COc1ccc(C2=NN(C(=O)CCC(=O)O)C(c3ccc(F)cc3)C2)cc1 (stereo unspecified)
  Sa helicase inh = x; MgrA DNA FP = -0.9

CC1CN(c2ncnc3c2cnn3-c2ccccc2)CC(C)O1 (stereo unspecified)
  Sa helicase inh = 5; MgrA DNA FP = x
Cc1cc(C)c2c(N)c(C3=NC(C)(C)Cc4ccccc43)sc2n1
  Sa helicase inh = 4; MgrA DNA FP = -1.1
CCCn1c[n+](CC(=O)C(C)(C)C)c2ccccc21
  Sa helicase inh = 16; MgrA DNA FP = x
Cc1oc(-c2ccccc2Cl)nc1CSCC(=O)N1CCCC1
  Sa helicase inh = 10; MgrA DNA FP = 4.3
COc1ccccc1-c1nnc(SCC(=O)c2cc(C)n(C)c2C)n1C
  Sa helicase inh = -5; MgrA DNA FP = x
COc1ccc(CN(C(=O)CSc2nnc(-c3ccc(OC)c(OC)c3)o2)c2ccc(F)cc2)cc1
  Sa helicase inh = 1; MgrA DNA FP = -0.3
O=c1c2c(nc3c(-c4ccccc4)c[nH]n13)CCCC2
  Sa helicase inh = 10; MgrA DNA FP = x
O=C(O)CCCc1nnc2c(=O)n(-c3ccc(Cl)cc3)ccn12
  Sa helicase inh = 2; MgrA DNA FP = x
CCOC(=O)C1C2C=CC3(CN(Cc4ccc(C)cc4)C(=O)C13)O2 (stereo unspecified)
  Sa helicase inh = 14; MgrA DNA FP = 3.3
Cc1nsc(N)c1C(=O)OCC(=O)Nc1ccc(F)cc1
  Sa helicase inh = 35; MgrA DNA FP = x

O=S(=O)(Nc1ccc(-n2cccc2)cc1)c1cc(C(F)(F)F)cc(C(F)(F)F)c1
  Sa helicase inh = x; MgrA DNA FP = 0.0
Cc1ccc2cc([N+](=O)[O-])ccc2n1
  Sa helicase inh = x; MgrA DNA FP = -4.4
O=C(OCC(=O)N1CCOCC1)c1ccccc1Cc1ccccc1
  Sa helicase inh = 15; MgrA DNA FP = x
O=C(CN1CCOCC1)Nc1ncc(Cc2ccc(Cl)cc2)s1
  Sa helicase inh = 0; MgrA DNA FP = x
Cc1c(NC(=O)c2ccc3c(c2)OCCO3)cccc1-c1nc2ncccc2o1
  Sa helicase inh = -1; MgrA DNA FP = x
O=C(COC(=O)c1ccccc1NCc1ccco1)c1ccc2[nH]c(=O)[nH]c2c1
  Sa helicase inh = -3; MgrA DNA FP = x
Nc1ccnn1Cc1ccsc1
  Sa helicase inh = -2; MgrA DNA FP = x
CC1=CC(=O)C(C(=O)/C=C/c2ccc(N3CCCCC3)cc2)C(=O)O1 (stereo unspecified)
  Sa helicase inh = -225; MgrA DNA FP = x
COc1cccc(-c2nc(CN3CCC(=O)CC3)cs2)c1
  Sa helicase inh = -14; MgrA DNA FP = x
O=C(O)C1C2C=CC(C2)C1C(=O)N1CCc2ccccc2C1 (stereo unspecified)
  Sa helicase inh = 10; MgrA DNA FP = x

CCOC(=O)C1CCCN(Cc2ccc(CC)cc2)C1 (stereo unspecified)
  Sa helicase inh = x; MgrA DNA FP = -2.5
N#Cc1ccc(CSC2=NCCCN2)cc1
  Sa helicase inh = x; MgrA DNA FP = -1.9
O=C1NCCCCC1NC(=S)Nc1ccccc1 (stereo unspecified)
  Sa helicase inh = 9; MgrA DNA FP = 1.8
CN1C(=O)/C(=C/c2ccccc2OCc2ccc(C(=O)O)cc2)NC1=S
  Sa helicase inh = 15; MgrA DNA FP = 4.7
OC(COc1ccc(N=Cc2ccc(Cl)cc2)cc1)CN1CCCCC1 (stereo unspecified)
  Sa helicase inh = x; MgrA DNA FP = -2.0
O=Nc1c(O)n(CN2CCCCC2)c2ccccc12
  Sa helicase inh = -15; MgrA DNA FP = 0.1
CCNC(=S)N1CCN(CCN=Cc2c(O)[nH]c(=O)[nH]c2=O)CC1
  Sa helicase inh = 15; MgrA DNA FP = -1.9
COc1ccc(-c2noc(N3CCC(C(N)=O)CC3)n2)cc1OC
  Sa helicase inh = -2; MgrA DNA FP = x
COC(=O)CCCCC1SCC(NC(=O)c2ccccc2)C1OC(C)=O (stereo unspecified)
  Sa helicase inh = -6; MgrA DNA FP = 0.2
CC(C)NC(=O)c1ccccc1NS(=O)(=O)Cc1ccccc1
  Sa helicase inh = 9; MgrA DNA FP = -0.5

O=C(O)c1nccnc1C(=O)Nc1ccc(N2CCOCC2)cc1
  Sa helicase inh = x; MgrA DNA FP = -1.3
CSc1ncc(-c2ccc(Cl)cc2)n1C
  Sa helicase inh = x; MgrA DNA FP = -0.8
Cc1cc(S(=O)(=O)NC2CCN(Cc3ccccc3)CC2)c(C)cc1Cl
  Sa helicase inh = x; MgrA DNA FP = -1.5
CCCC(C(=O)O)n1cnnn1 (stereo unspecified)
  Sa helicase inh = 9; MgrA DNA FP = -7.0
CCN1C(=C(C#N)C#N)C=Cc2cc(C)ccc21
  Sa helicase inh = 7; MgrA DNA FP = -2.0
CC1(C)C=Cc2c(c3ccccc3[nH]c2=O)O1
  Sa helicase inh = 8; MgrA DNA FP = x
COC(=O)c1ccc(CSc2nc(C)nc3sc4c(c23)CCCC4)o1
  Sa helicase inh = 15; MgrA DNA FP = x
CC(=O)N1CCN(c2ncnc3nc[nH]c23)CC1
  Sa helicase inh = -6; MgrA DNA FP = 0.7
